# From PubChem BioAssay
# MT1-MMP promoter – inhibitors of MT1-MMP promoter transcription, cell-based, luciferase reporter, luminescence (AID 618); MT1-MMP promoter luciferase reporter cells, luminescence; calls from a first round at 10 µM; hits with a dose series show EC50 in µM; hit rate 0.62% among 87,000;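 active = over half of the reporter light lost at 10 µM or EC50 under 50 µM; inactive = the rest and hits that failed the dose series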;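 also: actives suppress MT1-MMP promoter-driven transcription so potencies describe inhibitors; HT1080 fibrosarcoma cells; overnight exposure; toxic or luciferase-blocking compounds were not removed from the actives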
# Hsc70 ATP site – Hsc70 inhibitors, probe displacement, primary screen, biochemical, fluorescence polarization (AID 568); Heat shock cognate 71 kDa protein (Homo sapiens); Hsc70 fluorescence polarization, probe displacement; higher % means a stronger effect; strong numbers were not always called active; displacement, % at 20 µM; hits with a dose series show IC50 in µM; 83,000 tested, under 10 active;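 active = displacement above 50% without optical interference and an IC50 on retest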;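 also: ATPase domain with a fluorescein-tagged ATP probe; 0% = vehicle and 100% = excess ADP; read after one hour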
# WNV NS2B-NS3 inh – inhibitors of WNV NS2B-NS3 protease, primary screen, biochemical, fluorogenic substrate; AID 577, 2007; z-score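 (tested at a level between 10 and 100 µM)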; fluorogenic substrate Ex360/Em465; active compounds read low; hit rate 0.18% among 65,000;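 active = z-score at -3 or under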;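 also: score is relative to mean and spread of the compound wells of a plate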
# Target sequence (P06935 1371-1501 limits assumed): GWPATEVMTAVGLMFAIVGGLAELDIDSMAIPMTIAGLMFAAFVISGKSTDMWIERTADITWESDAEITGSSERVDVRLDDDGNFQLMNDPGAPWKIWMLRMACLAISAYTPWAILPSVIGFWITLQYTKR
# Target sequence (P06935 1502-1679 limits assumed): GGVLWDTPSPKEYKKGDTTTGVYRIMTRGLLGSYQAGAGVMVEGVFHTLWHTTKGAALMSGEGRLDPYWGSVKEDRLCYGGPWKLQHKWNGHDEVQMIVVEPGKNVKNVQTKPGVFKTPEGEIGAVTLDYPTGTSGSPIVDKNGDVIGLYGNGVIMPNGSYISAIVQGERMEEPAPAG
# Starred values were filed as active, the others as inactive; i = inactive; / = not tested or not shown.
SMILES	MT1-MMP promoter	Hsc70 ATP site	WNV NS2B-NS3 inh
COc1cc(SC)ccc1C(=O)Nc1ccc2c(c1)CCN2S(C)(=O)=O	i	0.0%	0.0023
NC(=O)CSc1nnc(-c2ccco2)n1N	i	1.3%	/
O=C(Nc1nnc(C2CC2)s1)c1cc(-c2ccccc2)nn1-c1ccccc1	i	-8.2%	0.8
COc1ccc(NS(=O)(=O)c2ccc3oc4ccccc4c3c2)cn1	i	-2.7%	0.49
CCCS(=O)(=O)N1CCN(C(=O)c2ccccc2F)CC1	i	0.1%	0.36
COc1ccccc1OCC(=O)Nc1ccc(S(=O)(=O)Nc2nc(C)cc(C)n2)cc1	i	-0.8%	0.15
CCN(CC)CCNC(=O)c1c(O)c2cccc3c2n(c1=O)CCC3	i	-4.0%	0.76
Cc1ccc(Cn2cccc(NC(=O)c3ccco3)c2=O)cc1	i	-6.8%	-1.3
Cc1nn(C)cc1CNC(=O)c1ccccc1Br	i	-2.1%	1.1
Cc1ccc(S(=O)(=O)CC(=O)N(C)C)cc1	i	3.2%	-0.73
CCSc1nnc(NC(=O)CC)s1	i	1.0%	0.15
CSc1nc(C)cc(SCC(=O)Nc2ccc(Cl)cc2Cl)n1	i	1.3%	/
COc1ccc(-n2cnnc2SCc2csc(-c3ccccc3)n2)cc1	i	1.8%	-1.2
Nc1nc(SCC(=O)Nc2ccccc2-c2ccccc2)n[nH]1	i	3.6%	/
O=C(Nc1nc2c(s1)CCCC2)c1ccc(Br)s1	i	-4.1%	-0.6
COc1ccc(-c2cc(C(=O)N3CCCc4ccccc43)no2)cc1OC	i	-8.2%	0.05
Cc1cc(-c2cc(-c3ccc(Cl)cc3)nc(N)c2C#N)co1	i	-4.5%	0.05
CC(=C/c1ccccc1)/C=N/NC(=O)c1cnccn1	i	0.7%	/
COc1cccc(=O)c2c(C)n(C)c(C)c12	i	-2.9%	0.88
CCOC(=O)c1c(C)c(C(=O)NCc2cccs2)c(C)n1C	i	1.9%	2.2
O=C(CSc1nnc(-c2ccco2)n1-c1ccccc1)NCc1ccco1	i	-3.1%	/
NC(=O)C1CCN(C(c2ccccc2Cl)c2nnnn2Cc2ccc3c(c2)OCO3)CC1 (stereo unspecified)	i	6.6%	-1
COc1ccc(NC2CC(=O)NC2=O)cc1 (stereo unspecified)	i	-1.7%	-0.55
O=C(COc1ncnc2c(Cl)cc(Cl)cc12)NC1CCCCCC1	i	-3.4%	/
CCN(Cc1ccccc1)C(=O)COC(=O)c1n[nH]c2ccccc12	i	-3.3%	/
CCN(CC(=O)O)S(=O)(=O)c1cc(Cl)ccc1Cl	i	-5.1%	-0.75
CCCCN(CC)CCNC(=O)CN(C)S(=O)(=O)c1ccc2c(c1)c(=O)n(C)c(=O)n2C	i	-5.8%	-0.35
CCOCCCNC(=O)N[C@@H](C)C(=O)OC	i	4.7%	1.3
COc1cc(C(=O)Nc2nnc(-c3sccc3C)s2)cc(OC)c1OC	i	-7.8%	-0.85
COC(=O)c1ccc(NC(=O)c2ccccc2N(C)S(C)(=O)=O)cc1	i	4.2%	-1.1
COc1ccccc1Cn1c(=O)c2ccccc2n2c(SCC(=O)N3CCCCC3)nnc12	i	-9.1%	0.99
CCOC(=O)C1CCN(C(=O)c2c(-c3c(Cl)cccc3Cl)noc2C)CC1	i	2.1%	-0.9
COc1ccc(N2CC(C)Cn3c2nc2c3c(=O)n(Cc3ccccc3F)c(=O)n2C)c(OC)c1 (stereo unspecified)	i	-1.7%	0.93
CNC(=O)CN(C)S(=O)(=O)c1ccc(F)cc1	i	1.5%	/
O=C(Nn1c(Cc2cccs2)nc2ccccc2c1=O)c1cccs1	i	-3.1%	-1.8
CCCn1c(Nc2ccc(Cl)cc2)nc2ccccc21	i	3.6%	/
Cc1noc(NS(=O)(=O)c2ccc(NC(=O)CS(=O)(=O)c3ccccc3)cc2)c1C	i	1.5%	-0.6
CCOC(=O)N1CCC(Nc2nc3ccccc3nc2NS(=O)(=O)c2ccc(Cl)cc2)CC1	i	0.8%	-0.05
Cc1cc(C(F)(F)F)nn1CC(=O)N1CCCC1	i	8.1%	1.4
Cc1ccc(C2c3c(oc4ccccc4c3=O)C(=O)N2c2nnc(C(C)C)s2)o1 (stereo unspecified)	i	1.3%	-0.48
C=CCn1c(SCc2ccc(C#N)cc2)nnc1-c1cccc(OC)c1	i	2.5%	0.13
CCCCC(NC(=O)c1ccc(Cl)cc1)C(=O)O (stereo unspecified)	i	-1.0%	1.2
O=C(COC(=O)c1ccccc1C(=O)N1CCN(c2ccc(F)cc2)CC1)NCc1ccccc1	i	10%	/
CC1CCN(C(=O)CSc2nnc(Cc3cccn3C)n2CCc2ccccc2)CC1	i	0.1%	1.4
Cn1c(=O)c(=O)n(C)c2cc(S(=O)(=O)N3CCc4ccccc43)ccc21	i	-117%	-0.46
O=C(CSc1cn(CCNC(=O)c2ccccc2)c2ccccc12)NCc1ccco1	i	1.9%	0.58
Cc1ccnc(SCCn2c(N3CCCCC3)nc3c2c(=O)n(C)c(=O)n3C)n1	i	2.9%	-0.17
Clc1ccc(NC2=NCCCCC2)cc1	i	4.5%	0.33
COc1ccc(S(=O)(=O)N2CCC(C)CC2)cc1Br	i	-1.3%	-0.48
CC1CN(c2nc(-c3ccccc3)nc3ccccc23)CC(C)O1 (stereo unspecified)	i	-0.3%	0.59

# Other records
SMILES	MT1-MMP promoter	Hsc70 ATP site	WNV NS2B-NS3 inh
CC(c1ccccc1)N1C(=O)c2ccc(C(=O)NCc3ccco3)cc2C1=O (stereo unspecified)	i	3.5%	0.14
CCc1cc(=O)oc2cc(OCC(=O)N(CC)CC)c(Cl)cc12	i	1.6%	-0.83
c1ccc(-n2cnnc2SCc2cn3cccnc3n2)cc1	i	-6.3%	/
CC(C)NC(=O)Cn1c(SCC(=O)c2ccc(F)cc2)nc2ccccc21	i	0.6%	/
Oc1c(C(c2ccc(F)cc2)N2CCc3ccccc3C2)sc2ncnn12 (stereo unspecified)	i	-0.5%	-0.48
CCOc1ccc(CCNC(=O)C2CCN(S(=O)(=O)CC)CC2)cc1OCC	i	8.8%	-0.78
Cc1cc2cc(C(c3nnnn3Cc3ccco3)N3CCc4ccccc4C3)c(=O)[nH]c2cc1C (stereo unspecified)	i	-6.2%	0.98
O=c1c2ccc(-c3nnc4n3-c3ccccc3SC4)cc2nc2n1CCCCC2	i	5.2%	-0.08
CCN(CC)CCCNC(=O)CC1Oc2ccc(C)cc2NC1=O (stereo unspecified)	i	1.5%	0.6
CCOc1ccccc1C1C(C(=O)Nc2ccccc2OC)=C(C)Nc2nc(CCCO)nn21 (stereo unspecified)	i	1.6%	1.2
COCCn1c(=O)c2c3c(sc2n(CC(N)=O)c1=O)CCCC3	i	0.7%	-0.96
O=C(Nc1nnc(-c2ccco2)s1)C1CCCCC1	i	-3.6%	-0.49
COc1ccc(CNC(=O)Nc2cccc(C)c2)cc1	i	0.0%	-0.56
CCOC(=O)N=S(N)(=O)c1ccc(Cl)cc1 (stereo unspecified)	i	-3.5%	-1.1
NC(=O)COC(=O)c1ccc(S(=O)(=O)N2CCCCCC2)cc1	i	4.2%	-0.31
CN(C(=O)C1CCCO1)c1nnc(-c2ccncc2)s1 (stereo unspecified)	i	2.7%	-0.22
Cc1ccc(NC(=O)CSc2nnc(-c3cccs3)n2Cc2ccco2)cc1	i	1.7%	/
N#Cc1cc2c(nc1SCc1ccccc1)CCCC2=O	i	-11%	0.02
O=C(c1ccco1)N1C(=O)c2cccc3cccc1c23	i	3.3%	0.03
COc1ccc(N2CCN(C(=O)c3ccc(CS(=O)(=O)c4ccc(OC)cc4)o3)CC2)cc1	i	-0.1%	-0.85
O=C(Nc1ccccc1C(F)(F)F)c1cc(-c2cccc(O)c2)on1	i	-0.5%	-0.06
COc1ccc(CC(=O)OC(C)CN2CCCC2)cc1 (stereo unspecified)	i	-1.2%	-1
CCOC(=O)N1CCN(CC(=O)Nc2c(C(=O)OC)[nH]c3cc(C)ccc23)CC1	i	-6.3%	/
CC(C)CCNC(=O)C(C)N(Cc1ccc(F)cc1)C(=O)c1ccc(CN2CCCCC2)o1 (stereo unspecified)	i	-5.1%	-1.1
CSc1ccc(S(=O)(=O)NC2CCCCC2)cc1	i	-0.7%	/
Cc1cc(C)n2nc(S(=O)(=O)N(C)Cc3ccccc3)nc2n1	i	-2.0%	0.88
CCC(C)(C(=O)NC1CCCC1)N(Cc1ccco1)C(=O)Cc1cccs1 (stereo unspecified)	i	-4.7%	/
O=C(CC1CCCCC1)NCC1CCCO1 (stereo unspecified)	i	3.9%	-0.4
O=C(O)CC(=O)Nc1ccccc1C(=O)O	i	1.8%	/
COc1ccc2c(CN(C)c3ccccc3)cc(=O)oc2c1	i	-5.0%	0.28
COCCSc1ccccc1C(=O)Nc1cc(C)on1	i	0.9%	0.3
CCCn1nc(NC(=O)c2ccccn2)c2cc3cc(C)ccc3nc21	i	-7.2%	/
Cc1cc(-c2nnc3sc(C4CCCCC4)nn23)n[nH]1	i	0.9%	0.9
O=S1(=O)CCC(N=Cc2cc(Br)ccc2O)C1 (stereo unspecified)	i	-1.1%	0.63
O=C(CSc1nnc(CN2CCCCCC2=O)n1-c1ccccn1)NCC(F)(F)F	i	6.2%	-0.04
Cc1ccc(NC(=O)CNc2cccc(C)c2C)c(C)c1	i	2.1%	-0.29
CCCc1nc2c(=O)[nH]c3ccccc3c2o1	i	3.9%	-1.1
COC(=O)c1ccc2c(=O)n(CCN3CCOCC3)c(SCC(=O)NC3CCCCC3)nc2c1	i	1.2%	0.01
Cc1nnc(NC(=O)CSc2nnc(Cc3cccn3C)n2-c2ccccc2)s1	i	-2.2%	-0.02
Cc1sc2ncnc(N[C@@H](CCC(=O)O)C(=O)O)c2c1C	i	1.0%	-0.58
Cc1ccc(C(=O)Nc2cccnc2)cc1S(=O)(=O)N1CCOCC1	i	-0.3%	/
Cc1ccc(N2CC(C(=O)OCC(=O)C(C)(C)C)CC2=O)cc1 (stereo unspecified)	i	1.7%	-1.5
CCOC(=O)c1c(C)[nH]c(NC(=O)Nc2c(C)n(C)n(-c3ccccc3)c2=O)c1C	i	-3.6%	-0.67
CCOc1ccccc1NC(=O)C1CCCN(C(=O)Nc2ccccc2)C1 (stereo unspecified)	i	1.3%	/
CCOc1cccc(-c2nnc3sc(-c4cccs4)nn23)c1	i	-4.0%	0.16
COc1cc(SC)ccc1C(=O)N1CCCCCC1	i	-1.7%	0.06
CC1(C)CC(=O)C(C(c2cccnc2)C2C(=O)CC(C)(C)CC2=O)C(=O)C1	i	-3.4%	-0.4
CC(C)On1c(SC(C)C)nc2ccccc2c1=O	i	-3.1%	/
Brc1ccc(-c2nnc3sc(CNC4CCCC4)cn23)cc1	i	-2.9%	-0.44
COc1ccc(-c2nnc(SCc3nnc(-c4ccccc4)o3)n2-c2ccccc2)cc1	i	-3.5%	0.56

# (cont.)
SMILES	MT1-MMP promoter	Hsc70 ATP site	WNV NS2B-NS3 inh
N=c1ccn(Cc2ccc(Cl)cc2)cc1	i	-1.6%	-0.04
O=C(NCCc1ccccc1)C(=O)N/N=C/c1ccccc1C(F)(F)F	i	-6.3%	/
c1ccc2c(CNCCN3CCOCC3)cccc2c1	i	-5.3%	-0.76
O=C(CCN1CCN(Cc2ccccc2)CC1)Nc1ccc(OCc2ccccc2)cc1	i	4.6%	/
CCOC(=O)CCC(=O)OCC(=O)NC(C)C1CC2CCC1C2 (stereo unspecified)	i	9.7%	1.3
CC1(C)CC(=O)C=C(NCCO)C1	i	2.1%	0.42
CN1CCN(C(=O)CCCOc2ccc(Cl)cc2Cl)CC1	i	0.3%	-0.79
Cc1ccc(NC(=O)COc2ccc(S(=O)(=O)N3CCOCC3)cc2)cc1	i	-3.4%	/
COc1ccc(C(=O)Nc2nc3ccccc3c(=O)[nH]2)cc1	i	4.4%	/
O=C(NCc1ccco1)c1nc2ncccn2n1	i	4.7%	-0.61
Cc1nnc(C)n1/N=C/c1cccc(Oc2ccccc2)c1	i	0.9%	0.82
CCOC(=O)CN1C(=O)S/C(=C/c2cc(C)n(-c3ccccn3)c2C)C1=O	i	1.3%	/
COc1ccc(/C(O)=C2/C(=O)C(=O)N(CCCN(C)C)C2c2ccc(Cl)cc2)cc1OC (stereo unspecified)	i	-6.9%	-1.2

# Four of the compounds above, with each value named.
mol: O=C(NCc1ccco1)c1nc2ncccn2n1
  MT1-MMP promoter: i | Hsc70 ATP site: 4.7% | WNV NS2B-NS3 inh: -0.61

mol: CCOC(=O)CN1C(=O)S/C(=C/c2cc(C)n(-c3ccccn3)c2C)C1=O
  MT1-MMP promoter: i | Hsc70 ATP site: 1.3% | WNV NS2B-NS3 inh: /

mol: Cc1ccc(NC(=O)COc2ccc(S(=O)(=O)N3CCOCC3)cc2)cc1
  MT1-MMP promoter: i | Hsc70 ATP site: -3.4% | WNV NS2B-NS3 inh: /

mol: N=c1ccn(Cc2ccc(Cl)cc2)cc1
  MT1-MMP promoter: i | Hsc70 ATP site: -1.6% | WNV NS2B-NS3 inh: -0.04

# Some of the compounds tested, so the mix of outcomes need not match the whole.
